Screens: PubChem, National Center for Advancing Translational Sciences (NCATS)
StopGo FLuc = FMDV 2A StopGo reporter, firefly signal. HEK cells with a luciferase reporter of 2A StopGo recoding. Potency, µM (doses to about 57.5 µM), for the others: at the top dose signal change, negative = less light. actives 0.23% (n = 120,000). AID 1745856; active = well fitted falling curve with a large enough effect; inconclusive = small, poorly fitted or top-dose-only effect; inactive = no such curve, though single readings can be large or run the other way; also: nearly all actives have a fitted effect of over 60% in size; overnight with compound
StopGo RLuc = FMDV 2A StopGo reporter, Renilla signal. actives 0.32% (n = 120,000). AID 1745857. HEK cells with a luciferase reporter of 2A StopGo recoding. Potency, µM (series often up to 57.5 µM), without a hit: at the top dose signal change, negative = less light; active means well fitted falling curve with a large enough effect; inconclusive means small, poorly fitted or top-dose-only effect; inactive means no such curve, though single readings can be large or run the other way; also: nearly all actives have a fitted effect of over 55% in size; overnight with compound
* hit, by the source's call; ? = inconclusive; & = joins results of further samples; [ ] = remark or other dose. % is scaled to controls: 0 for no effect and ±100 for the full control effect; potency is read from the fitted curve at half-maximal effect.

SMILES	StopGo FLuc	StopGo RLuc
COc1ccc(NC(=O)Cc2coc3cc(C)c(C)cc23)cc1Cl	47%[activator]	204%[activator]
Cc1ccc(CCNC(=O)c2cnc3c(-c4ccc(F)cc4)c(C)nn3c2C)cc1	-22%	8%
O=c1c2cc3c(cc2n(Cc2ccccc2)c(=O)n1Cc1nc(-c2ccccc2)no1)OCO3	-10%	5%
COc1ccc(-c2cc3ncc(C(=O)c4cc(Br)ccc4O)cn3n2)cc1	-13%	-9%
Cc1ccc(NC(=O)N2CCC3(CC2)OCCO3)cc1C	0%	-3%
CCN1CCN(C(=O)CN(c2cccc(C(F)(F)F)c2)S(C)(=O)=O)CC1	4%	1%
CNc1c(NC(=O)Nc2cccc(Cl)c2)c(=O)oc2ccccc12	3%	-4%
COC(=O)c1ccc(C(=O)OC)c(NC(=O)COC(=O)CC2Sc3ccccc3NC2=O)c1 (stereo not given)	57%[activator]	9%
Cc1cc(C)cc(NC(=O)C2CC(=O)NC(=NCc3ccccc3)N2)c1 (stereo not given)	-1%	-4%
CCOC(=O)c1cc(-c2ccccc2)nc2c(C)cc(C)cc12	-3%	0%
O=C(CNc1cc(S(=O)(=O)N2CCCCC2)ccc1N1CCCCC1)Nc1ccc(F)cc1	2%	28%
O=C(Nc1ccccc1)C1=C(c2ccccc2)SCCO1	-12%	-6%
Cc1cc(C)cc(Oc2coc3c(CN4CCN(C)CC4)c(O)ccc3c2=O)c1	-17%	-10%
CN(C)C=Nc1ccccc1I	0%	1%
CCN(CC)C(=O)c1sc2c(c1C)c(=O)n(-c1ccc(Cl)c(Cl)c1)c(=O)n2Cc1ccccc1C#N	-20%	-24%
CCOC(=O)COc1ccc(/C=C(/C#N)c2nc3ccc(C)cc3[nH]2)cc1OCC	101%[activator]	9%
Cc1[nH]c2ccc(C(=O)NCCN3CCN(C)CC3)cc2c1C	-3%	-1%
CCOc1cc(/C=C(/C#N)c2nc3ccccc3[nH]2)ccc1OC	157%[activator]	154%[activator]
CC(=O)NC(NC(=S)Nc1ccc(C)cc1)C(Cl)(Cl)Cl (stereo not given)	7%	25%
CCOc1ccccc1N(C)C(=O)c1sc2nc3n(c(=O)c2c1C)CCCC3	33%[activator]	10%
CCOc1cccc(C(=O)Nc2cccc(C(F)(F)C(F)(F)OC(F)(F)C(F)(F)C(F)(F)OC(F)(F)F)c2)c1	16%	8%
CC1CCN(CCCNCc2ccccc2)CC1	-19%	-13%
COc1cc(Cl)c(C)cc1NC(=O)c1ccc2c(SCC(=O)O)c3c(nc2c1)CCCC3	-2%	17%
CCOC(=O)Cc1nnc(NC(=O)Nc2ccc(Cl)cc2)s1	-5%	-12%
CCOc1cccc2cc(-c3nc4ccc(C(=O)O)cc4[nH]3)c(=O)oc12	1%	6%

Molecules shown so far containing a cyano group:
SMILES	StopGo FLuc	StopGo RLuc
CCN(CC)C(=O)c1sc2c(c1C)c(=O)n(-c1ccc(Cl)c(Cl)c1)c(=O)n2Cc1ccccc1C#N	-20%	-24%
CCOC(=O)COc1ccc(/C=C(/C#N)c2nc3ccc(C)cc3[nH]2)cc1OCC	101%[activator]	9%
CCOc1cc(/C=C(/C#N)c2nc3ccccc3[nH]2)ccc1OC	157%[activator]	154%[activator]

The listing picks up, repeating the 3 entries before the break.
SMILES	StopGo FLuc	StopGo RLuc
COc1cc(Cl)c(C)cc1NC(=O)c1ccc2c(SCC(=O)O)c3c(nc2c1)CCCC3	-2%	17%
CCOC(=O)Cc1nnc(NC(=O)Nc2ccc(Cl)cc2)s1	-5%	-12%
CCOc1cccc2cc(-c3nc4ccc(C(=O)O)cc4[nH]3)c(=O)oc12	1%	6%
CCCc1nn2c(=O)cc(COC(=O)c3ccc(NC(=O)CCc4ccccc4)cc3)nc2s1	-14%	-12%
CCOC(=O)c1noc2nc(C)n(CC(=O)Nc3cc(C)ccc3OC)c(=O)c12	-2%	-17%
CSCC[C@@H](C(=O)Nc1cccc(F)c1)N1Cc2ccccc2C1=O	-6%	60%[activator]
CN1CCN(C(=O)Cn2c(-c3cccs3)cc3ccccc32)CC1	-4%	-11%
Cc1ccc(C)c(N2CCN(C(=O)c3cnn(-c4ccccc4Cl)c3C3CCN(C(=O)OC(C)(C)C)CC3)CC2)c1	-5%	1%
CC(=O)c1cn(CC(=O)N2CCCCCC2)c2ccccc12	1%	2%
Clc1ccccc1-c1nnc(-c2ccccc2CNc2ccccc2)o1	25%	1%
CC(C)CCC(C)NC(=O)CCCNC(N)=O (stereo not given)	0%	2%
Cn1c(=O)c2[nH]cnc2n(C)c1=O	-10%[11.5 µM]	-7%
COc1cccc(NC(=O)CN2C(=O)CSc3ccc(S(=O)(=O)N4CCCC4)cc32)c1	-7%	25%
CCC(C)NC(=O)CSc1nc2c(sc3ccccc32)c(=O)n1CCc1ccc(OC)c(OC)c1 (stereo not given)	-3%	-8%
Cc1ccc(-n2nc(CO)c(C(=O)NCc3cccnc3)n2)cc1	?	-1%
COc1ccc(NC2=CC(=O)CC(c3ccccc3)C2)c(OC)c1 (stereo not given)	30%[activator]	68%[activator]
COc1ccc(CCNC(=O)C2CCC(CNS(=O)(=O)c3ccc(C)cc3)CC2)cc1OC (stereo not given)	-14%	-1%
CC(C)[Si](C#CCN1CCCCC1)(C#CCN1CCCCC1)c1ccccc1	180%[activator]	7%
CN(C(=O)Cc1cccc2ccccc12)c1nc2ccccc2o1	14%	4%
Cc1ccc(S(=O)(=O)Nc2nc3ccccc3nc2Nc2ccccc2)cc1C	-1%	66%[activator]
Nc1nc(N2CCCCC2)nc2c1C(C(=O)Nc1ccc(Cl)cc1)CC(=O)N2 (stereo not given)	13%	10%
Cn1cnc([N+](=O)[O-])c1	2%	7%
Cc1cccc(/C=N/Nc2ccc([N+](=O)[O-])cc2)n1	6%	6%
C=CCn1c(-n2nc(C)cc2C)nc2c1c(=O)n(CCOCC)c(=O)n2C	8%	0%
Cc1cnc(NC(=O)c2csc3ccccc23)s1	0%	13%
CCc1cccc2c(C=O)c[nH]c12	-6%	1%
CCCCCCCCCCCCNC(=O)Nc1ccc(Cl)cc1	3%	5%
COc1ccc(Cl)cc1NC(=O)c1cc(S(=O)(=O)N(C)Cc2ccccc2)ccc1F	-8%	85%[activator]

Remaining list, next part.
SMILES	StopGo FLuc	StopGo RLuc
Cc1cccc(C(=O)Nc2nnc(S(=O)(=O)N3CCOCC3)s2)c1	35%[activator]	10%
CNC(C)Cc1ccc2c(c1)OCO2 (stereo not given)	-7%[27 µM]	-5%[129 µM]
O=C(c1ccco1)N1CCC(C(=O)N2CCCC2)CC1	3%	1%
Cc1cccc(OCC(O)Cn2c(=N)n(CCN3CCCCC3)c3ccccc32)c1 (stereo not given)	?	?
COc1cccc(CNC(=O)CC(C)CC(=O)O)c1 (stereo not given)	18%	-1%
CC1CCN(C(=O)COC(=O)c2nn(C)c(=O)c3ccccc23)CC1	-9%	-12%
CCc1ccc(NC(=O)CC2C(=O)N(c3cccc(OC)c3)C(=O)N2Cc2ccc(F)cc2)cc1 (stereo not given)	-31%	10%
Cc1ccc(C)c(N2CCN(C(=O)c3cc(C)nc4c3c(C)nn4-c3ccccc3)CC2)c1	26%	10%
CC1CCN(c2nc(SCCN(C)C)c(C#N)c3c2CCCC3)CC1	-9%	-15%
CCS(=O)(=O)NCCC(=O)O	-6%	-2%
CCc1ccc(NC(=O)Cn2cc(OC)c(=O)cc2CSc2ccc(F)cc2)cc1	23%	15%
CCOC(=O)Cc1nnc(SC(C)C(=O)Nc2cccc(F)c2)n1C (stereo not given)	-3%	-1%
Nc1nc(-c2cc3c4c(c2)CC(=O)N4CCC3)cs1	80%[activator]	10%
Cc1cccc(N(CC(=O)Nc2ccccc2C(=O)NCC2CCCO2)S(C)(=O)=O)c1C (stereo not given)	12%	10%
Fc1ccc(-c2noc3ncnc(NCc4cccc(Cl)c4)c23)cc1	-15%	6%
CC(C)=CCC/C(C)=C/C=N/NC(=O)Nc1ccccc1	82%[activator]	-20%
CC(=O)Nc1cc(C)c(O)c(-c2nc3cc(C)ccc3o2)c1	-5%	-5%
COc1ccc(-c2cc(C(F)(F)F)nc(NCCc3ccccc3)n2)cc1	101%[activator]	-7%
CCN(CC)C(=O)Cn1c(=O)n(-c2ccccc2)c(=O)c2c3c(sc21)CCC3	0%	-12%
Cc1ccc(OCC(=O)N(Cc2ccco2)Cc2ccco2)cc1	-2%	43%[activator]
CC(C(=O)N(C)C)N(c1ccc(Cl)cc1)S(C)(=O)=O (stereo not given)	1%	-2%
Cc1ccc2c(c1Br)C(O)(CC(=O)c1ccc(F)cc1)C(=O)N2 (stereo not given)	-12%	-6%
O=C(CCc1c[nH]c2ccccc12)N1CCCC1c1ccccc1 (stereo not given)	6%	36%[activator]
COc1ccccc1N1CCN(C(=O)c2cc3c(-c4ccccc4F)nn(C)c3s2)CC1	-26%&-26%	-9%&-24%
CCCCN(CCCC)C1=C(C(=O)c2ccccc2)N(C)S(=O)(=O)c2ccccc21	-12%	-5%

Next section:
SMILES	StopGo FLuc	StopGo RLuc
Cc1ccc(NC(=O)C2CCCC2)cc1C	68%[activator]	43%[activator]
CCOc1ccc(NC(=O)c2sc3nc4c(c(-c5ccc(OC)cc5)c3c2N)C(=O)CC(C)(C)C4)cc1	-12%	12%
CCOc1ccccc1NC(=O)Cn1c(=O)n(CC(=O)NCc2ccccc2Cl)c(=O)c2sccc21	61%[activator]	25%
Cc1ccccc1COc1ccccc1C(=O)OCc1ccc(-c2ccccc2)cc1	4%	-4%
COc1cc(/C=C/C2=Nc3ccccc3SC(C)(C)C2)ccc1O	113%[activator]	-24%
CCNc1c(NC(=O)NCc2cccc(OC)c2)c(=O)oc2ccccc12	-11%	-16%
CCOc1ccc(NC(=O)CSc2cn(CC(=O)N3CCCCCC3)c3ccccc23)cc1	-5%	13%
COc1cc([N+](=O)[O-])ccc1NC(=O)N1CCC2(CC1)Nc1cc(F)ccc1-n1cccc12	-6%	-4%
CC(=O)c1cc2c(cc1N/C(=N/S(=O)(=O)c1ccc(C)cc1)c1ccccc1)OCO2	65%[activator]	196%[activator]
Nc1nn(-c2ccccc2)nc1C(=O)OCc1c(F)cccc1Cl	293%[activator]	93%[activator]
O=C(Nc1ccc(Cl)cc1)c1nc2ccccc2nc1N1CCCCC1	-6%	-2%
O=c1[nH]c(CN(Cc2cccs2)CC2CCCO2)nc2scc(-c3ccc(F)cc3)c12 (stereo not given)	?	-1%
COc1ccc(CNC(C)C)c2ccccc12	-20%	-28%
COc1ccc(Cl)cc1NC(=O)CSc1nc2c(c(=O)n1CCc1ccccc1)SCC2	18%	7%
CCC(C)NC(=O)Cn1c(=O)n(C)c(=O)c2sc(N3CCCC3)nc21 (stereo not given)	-14%	-15%
CC1CCN(S(=O)(=O)c2cc3cc(F)ccc3oc2=O)CC1	6%	-7%
O=C(CCC(=O)c1ccc2c(c1)CCC2)NC1CCCc2ccccc21 (stereo not given)	12%	14%
O=C(Nc1cccc(C(F)(F)F)c1)c1ccc(C2Nc3ccccc3S(=O)(=O)N2)cc1 (stereo not given)	153%[activator]	37%[activator]
CCOc1cc(C#N)c(NC(=O)c2ccc(OC)c(S(=O)(=O)N3CCCC3)c2)cc1OCC	8%&3%	31%&39%
CN(C)CC(=O)Nc1sc2c(c1C#N)CCCCC2	139%[activator]	-7%
COCCNC(=O)Cn1cnc2c1c(=O)n(C)c(=O)n2C	-9%	-7%
Cc1ccccc1C(=O)Nc1ccccc1-c1nc(-c2ccccc2)no1	26%	-1%
CNC(=O)c1cccc(NC(=O)CSCc2csc(-c3ccc(C(C)C)cc3)n2)c1	?	0%
NC(=S)Nc1cccc(Br)c1	5%	26%
CCC(Sc1nnc(C)n1-c1ccccc1)C(=O)Nc1cc(C)on1 (stereo not given)	10%	11%

Continued:
SMILES	StopGo FLuc	StopGo RLuc
CN(CC(=O)NCc1ccccc1)S(=O)(=O)c1ccc2[nH]c3c(c2c1)CCCC3	-16%	73%[activator]
Cc1ccc2c(Cl)cc(Cl)c(OCC(=O)NC(C)C(C)C)c2n1 (stereo not given)	17%	16%
CC(NC(=O)c1ccccc1)c1nc2ccccc2n1Cc1ccc(Cl)cc1 (stereo not given)	2%	13%
COc1ccccc1NC(=O)C1=C(C)Nc2nc(SCc3ccccc3C)nn2C1CC(C)C (stereo not given)	-26%	-14%
CCN1C(=O)C(Cc2nc3ccccc3c(=O)n2CCCO)c2cc(C)ccc21 (stereo not given)	-12%	-5%
Cc1ccc(S(=O)(=O)NCc2nc(-c3cccc(C)c3)no2)cc1	10%	14%
CCOC(=O)c1c(C)oc2nc(C)nc(NCCc3ccc(OCC)c(OCC)c3)c12	-8%	-14%
CCOc1ccc(-c2cccc(NS(=O)(=O)c3c(C)cc(C)cc3C)c2)nn1	2%	169%[activator]
CCCOc1ccc(CNC(=O)C2CCCN(c3nc4c(C)cc(C)cc4s3)C2)cc1 (stereo not given)	-23%	-8%
COC(=O)C1(NC(=O)c2c(F)cccc2Cl)CCCCC1	1%	2%
CCCCc1nn2c(=O)cc(COC(=O)c3ccccc3NC(=O)c3cccs3)nc2s1	-16%	-13%
COc1ccc(CN2CC3=C(C2=O)C(c2cc(OC)c(OC)c(OC)c2)NC(=O)N3)cc1 (stereo not given)	5%	-1%
CCc1ccccc1Oc1cnn(-c2ccc(C(F)(F)F)cn2)c(=O)c1Cl	50%[activator]	11%
Cc1ccc(NC(=O)c2ncoc2-c2cccs2)c(C)c1	21%	-6%
CN(C)CCCNC(=O)C(=O)Nc1ccc2cc[nH]c2c1	11%	-9%
Cc1ccc(-c2cc(C(=O)NCCN(C)C)c3ccccc3n2)cc1C	11%	-11%
Cc1cc(C)cc(NC(=O)Cn2nnc(C(=O)NCc3ccco3)c2N)c1	0%	10%
CCCCCOC(=O)c1ccc(Nc2nc(C(=O)OCC)nc3ccccc23)cc1	8%&-9%	9%&6%
CCOC(=O)c1ccc(NC(=O)CCn2ccc(C)n2)cc1	16%	3%
